miR-21 FLuc: qHTS Assay for Modulators of miRNAs and/orActivators of miR-21 | Potency, µM (doses to about 38.3 µM), inactives show at the highest dose reporter change, positive = more light | 340,000 tested, under 10 active | HeLa miR-21 FLuc reporter, luciferase, 48 h | AID 2288, 2010; active = well fitted rising curve with a large enough effect; inconclusive = small, poorly fitted or top-dose-only effect; inactive = no such curve, though single readings can be large or run the other way;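 further: % of control where 0% means no effect; miR-21 action dims this reporter so a rising signal means less miR-21 action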
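Compounds were titrated across several concentrations (up to approximately 40 uM) and incubated 48 hours with HeLa miR-21-FLuc reporter cells (miR-21 target sequence downstream of FLuc, endogenous miR-21). Readout was firefly luciferase luminescence after lytic detection reagent.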
Rango release inh: qHTS Assay for Inhibitors of RanGTP induced Rango (Ran-regulated importin-beta cargo) - Importin beta complex dissociation; hit rate 0.071% among 340,000; Biochemical FRET Rango-importin beta, RanGTP-induced dissociation; Potency, µM (highest dose often 46.1 µM), for the others: at the top dose activity change, negative = inhibition; Snurportin-1 (Homo sapiens) + GTP-binding nuclear protein Ran (Homo sapiens) + Importin …; active means falling FRET ratio curve, often poorly fitted, with flat reads before Ran was added; inconclusive means other falling curves, or compound fluorescence or quenching; inactive means flat or rising ratio curve;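 further: potency means the concentration at half of the fitted maximal effect; % of control where 0% means no effect; nearly all actives have a fitted effect of over 45% in size; -100% = wells without RanGTP and RCC1; the record marks most hits as doubtful in a second field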
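Compounds sat 5 min at room temperature with 0.1 uM Rango biosensor plus 0.25 uM importin beta, then FRET pre-read. RanGTP-RCC1 (0.6 uM Ran, 2mM GTP, 0.2 uM RCC1) added for 45 min, and the CFP/YFP post-read measured blocked complex dissociation.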
Rango-impB inh: qHTS Assay for Inhibitors of Rango (Ran-regulated importin-beta cargo) - Importin beta complex formation | Rango CFP/YFP FRET sensor + importin beta, 45 min | AID 540263, 2011 | Importin subunit beta-1 (Homo sapiens), Q14974 | hit rate 0.031% among 340,000 | Potency, µM (series often up to 92.2 µM), for inactives: at the highest dose inhibition of complex formation; active = rising FRET ratio curve, often small or poorly fitted; inconclusive = mostly compound fluorescence or quenching in the first reads; inactive = flat curves in all reads;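 further: potency means the concentration at half of the fitted maximal effect; 0% = DMSO wells and 100% = buffer wells lacking importin beta; nearly all actives have a fitted effect of over 15% in size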
Target sequence (Q14974 whole entry, looked up): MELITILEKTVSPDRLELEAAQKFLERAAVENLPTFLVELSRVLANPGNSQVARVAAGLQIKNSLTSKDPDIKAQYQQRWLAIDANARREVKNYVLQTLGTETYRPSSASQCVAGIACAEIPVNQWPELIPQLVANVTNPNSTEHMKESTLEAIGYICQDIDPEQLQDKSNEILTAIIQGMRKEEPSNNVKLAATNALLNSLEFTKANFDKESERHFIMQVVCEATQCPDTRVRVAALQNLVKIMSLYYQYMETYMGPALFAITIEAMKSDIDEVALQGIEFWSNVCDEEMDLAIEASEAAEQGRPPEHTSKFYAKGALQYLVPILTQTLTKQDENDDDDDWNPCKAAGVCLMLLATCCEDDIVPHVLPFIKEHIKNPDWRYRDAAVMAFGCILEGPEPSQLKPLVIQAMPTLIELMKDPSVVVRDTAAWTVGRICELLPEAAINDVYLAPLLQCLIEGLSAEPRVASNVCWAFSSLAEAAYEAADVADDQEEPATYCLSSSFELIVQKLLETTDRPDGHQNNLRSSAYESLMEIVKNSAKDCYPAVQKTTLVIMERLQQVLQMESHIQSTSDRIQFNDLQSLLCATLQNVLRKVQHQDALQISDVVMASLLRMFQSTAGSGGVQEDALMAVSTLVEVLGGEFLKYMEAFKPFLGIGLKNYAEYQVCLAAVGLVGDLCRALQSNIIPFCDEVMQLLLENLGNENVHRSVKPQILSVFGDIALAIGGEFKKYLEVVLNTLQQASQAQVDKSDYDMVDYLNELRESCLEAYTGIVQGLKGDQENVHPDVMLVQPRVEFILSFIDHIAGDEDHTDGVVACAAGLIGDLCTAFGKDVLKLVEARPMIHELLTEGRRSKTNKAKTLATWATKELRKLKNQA
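FRET biosensor Rango (snurportin 1 IBB between N-terminal EYFP and C-terminal Cerulean), 50 nM in PBS/1 mM DTT/0.02% Tween-20/0.1% BSA, preincubated 5 min RT with compound; 0.125 microM importin beta added, 45 min RT, CFP/YFP FRET ratio read.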
GLA inh pH 4.5: qHTS Assay for Inhibitors of Human alpha-Galactosidase at pH 4.5; purified enzyme, 4-MU-alpha-Gal fluorescence, pH 4.5; activity change, negative = inhibition, % at 105 µM; 230,000 tested, under 10 active; AID 1467, 2008; inconclusive = small, poorly fitted or top-dose-only inhibition, or a rising curve; inactive = flat fitted curve, though single readings scatter; no compound was filed as active;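 further: 0% = full activity with enzyme and -100% = basal without enzyme; dose as in the result columns while the protocol names 77 µM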
Starred values were filed as active, the others as inactive; u = inconclusive; x = not tested or not shown. Some of the compounds tested (hit frequency here may not be typical).

GLA inh pH 4.5 | structure | Rango-impB inh | Rango release inh | miR-21 FLuc
x | COC(c1ccccc1)(c1ccccc1)C(Oc1nccc(C)n1)C(=O)O (stereo unspecified) | 0.7% | -6% | 0%
0 | COc1cc2c(cc1NC(=O)COC(=O)CNS(=O)(=O)c1ccc(C)cc1)oc1ccccc12 | -2.1% | -6% | -44%
-4 | O=C(NCc1ccccc1)N1CCC(c2nc3ccccc3[nH]2)CC1 | 3.5% | 28% | 0%
-13 | Cc1cccc(NC(=O)c2ccccc2[N+](=O)[O-])n1 | 1.6% | 5% | -2%
x | NCCNC(=O)Cc1ccc(NC(=O)Cc2ccc(Nc3ncnc4c3ncn4[C@@H]3O[C@H](CO)[C@@H](O)[C@H]3O)cc2)cc1 | 0.1% | 21% | x
x | CN(CCN1CCOCC1)C(=O)CC1C(=O)NCCN1Cc1ccccc1F (stereo unspecified) | 1.5% | -4% | -4%
-5 | Cc1ccc(C(=O)OCC(=O)c2ccc(Cl)s2)s1 | -0.9% | -15% | -20%
x | COCCNC(=O)[C@H]1N2C(=O)c3ccccc3C2SC1(C)C (stereo partly specified) | -1.4% | 0% | 3%
x | Cc1ccc(C(=O)Nc2cccc(C(=O)N/N=C/c3ccc(O)cc3)c2)cc1 | -1.6% | 18% | -21%
x | COc1ccc(Cl)cc1NC(=O)CN(C)C(=O)c1cc(C)oc1C | -0.7% | -10% | x
4 | CCOC(=O)C(=NC(C)(C)C)NNc1cc(Cl)ccc1Cl | -1.4% | 15% | 7%
-1 | CC(=O)Nc1ccc(Nc2ncnc3c2cnn3-c2ccccc2)cc1 | -0.4% | 1% | -28%
2 | CC(O)c1nc2ccccc2n1CCCOc1ccccc1 (stereo unspecified) | 4.1% | 2% | -10%
-3 | COC(=O)C1CCN(Cc2ccc(C)cc2)CC1 | -0.1% | -10% | -4%
-2 | Cc1ccc(Cn2c(=O)oc3ccccc32)cc1 | -2.4% | 3% | -12%
x | CCOC(=O)C1OC1(c1ccccc1)c1ccccc1 (stereo unspecified) | -0.6% | 0% | x
12 | O=C(Nc1ccc(F)cc1F)c1ccco1 | 0.5% | -4% | -22%
-3 | O=C(N/N=C/c1cccc([N+](=O)[O-])c1)C1CC1c1ccccc1 (stereo unspecified) | 1.0% | 2% | -14%
x | OCC1(CCc2ccccc2)CCCN(CCCC(F)(F)F)C1 (stereo unspecified) | -1.4% | 1% | 1%
-3 | Cc1ccc(-n2c(C)cc(=O)cc2C)c(C)c1 | -0.8% | -12% | -9%
0 | COc1ccc(C2CC(c3cccc(OC)c3)n3nc(N)nc3N2)cc1 (stereo unspecified) | 1.4% | 1% | -10%
-16 | FC(F)(F)c1ccccc1-n1c(CN2CCCCC2)n[nH]c1=S | 1.0% | 18% | -5%
-8 | CCCN1C(=O)N(c2cccc(C)c2)C(C)(O)CC1(C)C (stereo unspecified) | -1.1% | u | 1%
x | COc1ccc(S(=O)(=O)N(CC(=O)NCc2cccnc2)c2ccc(C)cc2)cc1OC | 0.7% | 11% | 1%
8 | CCN(CC)C(=O)CC(c1ccccc1)c1ccco1 (stereo unspecified) | -2.2% | -1% | -3%

Four of the entries above in order of the Rango release inh value, ascending:
GLA inh pH 4.5 | structure | Rango-impB inh | Rango release inh | miR-21 FLuc
x | CN(CCN1CCOCC1)C(=O)CC1C(=O)NCCN1Cc1ccccc1F (stereo unspecified) | 1.5% | -4% | -4%
x | OCC1(CCc2ccccc2)CCCN(CCCC(F)(F)F)C1 (stereo unspecified) | -1.4% | 1% | 1%
x | Cc1ccc(C(=O)Nc2cccc(C(=O)N/N=C/c3ccc(O)cc3)c2)cc1 | -1.6% | 18% | -21%
x | NCCNC(=O)Cc1ccc(NC(=O)Cc2ccc(Nc3ncnc4c3ncn4[C@@H]3O[C@H](CO)[C@@H](O)[C@H]3O)cc2)cc1 | 0.1% | 21% | x

Next section:
GLA inh pH 4.5 | structure | Rango-impB inh | Rango release inh | miR-21 FLuc
-9 | COc1ccc(NC(=O)CC(c2ccccc2)c2ccco2)cc1 (stereo unspecified) | -3.1% | 4% | 0%
2 | C/C(=N/NC(=O)CNC(=O)c1cccnc1)c1ccc([N+](=O)[O-])cc1 | 3.2% | 0% | -1%
6 | COc1ccc(/C=N/NC(=O)c2ccc(Br)cc2)cc1Cn1cc(Cl)cn1 | 0.3% | -8% | -2%
1 | C#CCn1cc(/C=N/NC(=O)COc2cccc3cccnc23)c2ccccc21 | 0.0% | -6% | -28%
x | COc1ccccc1N1CCN(C(=O)C2CCN(S(=O)(=O)c3ccc4c(c3)CC(C)N4C(C)=O)CC2)CC1 (stereo unspecified) | -1.3% | -24% | 12%
2 | COc1ccc(NC(=O)CSc2nc(C)cs2)c(OC)c1 | 5.1% | 0% | -16%
x | CCNC(=O)CN(c1ccc(F)cc1)S(=O)(=O)c1ccc2c(c1)OCCO2 | 0.0% | -7% | 0%
0 | CN(c1cccc(NC(=O)c2ccccc2N(C)S(C)(=O)=O)c1)S(C)(=O)=O | -2.4% | 9% | 2%
x | COc1ccc(C(=O)Nc2ccc(C(=O)N3CCCC3)cc2)cc1[N+](=O)[O-] | -0.4% | 10% | -2%
x | Fc1ccc(N=Cc2ccc[nH]2)cc1 | -3.6% | 6% | 2%
x | CC(C)(C)c1ccc(C2=CC(c3ccccc3F)n3ncnc3N2)cc1 (stereo unspecified) | u | u | x
x | O=C(O)C(NC(=O)C1CCCN1C(=O)OCc1ccccc1)c1ccccc1 (stereo unspecified) | -2.9% | 14% | 0%
-3 | Cc1cccc(/C=N\NC(=O)c2ccc(Cl)cc2)c1O | -1.4% | -7% | -1%
3 | O=C(CN1CCSC1=NCc1ccccc1)c1ccc(Cl)c(Cl)c1 | -3.1% | -4% | -4%
-17 | Cn1c(=O)c2c(nc(NC3CCCCC3)n2CC(=O)C23CC4CC(CC(C4)C2)C3)n(C)c1=O | -3.1% | 7% | -2%
-2 | Cc1ccc(NC(=O)C(OC(=O)c2ccc(F)cc2)c2ccccc2)cc1Cl (stereo unspecified) | 0.0% | -5% | -26%
x | Cc1cc(=O)n2nc(N3CCC(C(=O)Nc4c(F)c(F)c(F)c(F)c4F)CC3)sc2n1 | 3.2% | 6% | -6%
x | COc1ccc(C(=O)N2CCC(C(N)=O)CC2)cc1S(=O)(=O)N1CCCC1 | -1.1% | -4% | x
4 | COc1ccc(C2C3=C(CC(C)(C)CC3=O)N(CCN3CCOCC3)C3=C2C(=O)CC(C)(C)C3)cc1 | u | u | -4%
1 | O=C(/C=C/c1ccc(Cl)cc1)NC1CC2CCC1C2 (stereo unspecified) | 5.0% | 9% | -60%
x | CCCCNC(=O)CNC(=O)c1nn(-c2ccc(OC)c(Cl)c2)c(=O)c2ccccc12 | u | -1% | 1%
-15 | CC(Oc1ccccc1)C(=O)Nc1cccc(-c2nc3ccccc3[nH]2)c1 (stereo unspecified) | -1.0% | -2% | 13%
-19 | O=C(NC1CS(=O)(=O)CC1NCc1ccccc1)c1ccccc1 (stereo unspecified) | u | -14% | -4%
6 | CC(C)c1ccccc1NC(=S)NCc1ccncc1 | 0.8% | -5% | 0%
-3 | CC(C)[C@H](NS(=O)(=O)c1ccccc1)C(=O)OCC(=O)Nc1ccc2c(c1)OCO2 | 6.1% | -9% | -10%
-16 | CN(Cc1ccccc1)C(=O)c1cc2ccccc2o1 | 2.8% | -5% | -31%
x | CCC(=O)N1c2ccc(S(=O)(=O)N3CCN(c4ccc([N+](=O)[O-])cc4)CC3)cc2CC1C (stereo unspecified) | 2.5% | 5% | 2%
2 | CCN(CC)CCN1C(=O)C(O)=C(C(C)=O)C1c1ccccc1[N+](=O)[O-] (stereo unspecified) | -3.4% | -1% | -16%
x | O=C(COC(=O)/C=C/c1cccs1)Nc1ccc(Cl)cc1F | -2.1% | 2% | x
0 | Cc1ccc(C)c(SCC(=O)NC(=O)NCc2ccccc2)c1 | -0.2% | 2% | -11%
6 | Cc1c(C(=O)NN)nc2ccccn12 | 0.1% | 1% | -6%
-9 | Cc1ccc(C2(O)C(=O)c3ccccc3C2=O)c(O)c1C | 0.7% | -5% | 2%
x | COc1ccc(CN2CCC(=O)N([C@H](CO)Cc3ccccc3)CC2)cc1OC | -0.1% | -9% | 0%
x | Cc1ccc(-n2ncc3c2CC(C)(C)CC3NC(=O)c2ccccn2)cc1 (stereo unspecified) | 0.5% | 17% | 7%
u | Cc1c(CCC(=O)O)c(=O)oc2cc(O)ccc12 | u | u | -3%
6 | CCc1c(C)nc(SCC(=O)N2CCCCC2C)[nH]c1=O (stereo unspecified) | -2.6% | -20% | 0%
4 | O=C(NCCN1CCN(S(=O)(=O)c2ccc([N+](=O)[O-])cc2)CC1)C(=O)Nc1ccccc1 | u | u | -3%
4 | O=C(CC1Nc2ccccc2NC1=O)NC1CCCCC1 (stereo unspecified) | u | u | -20%
-7 | c1cnc(SCCCOc2ccc3ccccc3c2)nc1 | -2.5% | 4% | -50%
-6 | COCCNC(=O)C(C)OC(=O)C1=Cc2ccccc2OC1 (stereo unspecified) | 0.1% | -22% | -8%
1 | Cc1nc(NCCCn2ccnc2)c2oc3ccccc3c2n1 | 0.8% | 0% | -8%
x | C[C@@]12C(=O)N(Cc3ccco3)CC(=O)N1[C@H]1c3cc(Cl)ccc3OC[C@@H]1[C@@H]2c1ccccc1 | -3.1% | 8% | x
x | COc1ccc(NS(=O)(=O)c2ccc(-c3cnc(C4CC4)o3)cc2)cc1OC | 0.4% | -18% | 28%
10 | Cc1nc2c(sc3nc4c(cc32)COC(C)(C)C4)c(=O)n1Cc1ccccc1 | 1.4% | -12% | -9%
-2 | Cc1cc(C)c(C(N)=O)c(Nc2cccc(Cl)c2)n1 | 4.6% | 1% | -6%
x | Cc1ccc(C(=O)NC(C)c2ccc(-n3ccnc3)cc2)cc1 (stereo unspecified) | 3.8% | 1% | -2%
3 | Cc1ccc(C)n1-c1ccc(C(=O)N2CCC(C(N)=O)CC2)cc1 | -5.5% | 1% | 0%
x | COc1ccccc1S(=O)(=O)Nc1ccc(S(=O)(=O)Nc2nccs2)cc1 | 0.4% | 1% | x
x | Cc1ccc(NC(=O)Cn2ccc(=O)[nH]c2=O)cc1 | 2.2% | -1% | -11%
-1 | COc1ccc(S(N)(=O)=O)cc1C(=O)NCC1(N2CCCCC2)CCCCC1 | -2.0% | 13% | 0%

Profiles, looked up by structure. Order of screens: GLA inh pH 4.5 | Rango-impB inh | Rango release inh | miR-21 FLuc
Cc1nc2c(sc3nc4c(cc32)COC(C)(C)C4)c(=O)n1Cc1ccccc1 in the list: 10 | 1.4% | -12% | -9%
Cc1c(CCC(=O)O)c(=O)oc2cc(O)ccc12 in the list: u | u | u | -3%
COc1ccc(NS(=O)(=O)c2ccc(-c3cnc(C4CC4)o3)cc2)cc1OC in the list: x | 0.4% | -18% | 28%
O=C(CC1Nc2ccccc2NC1=O)NC1CCCCC1 (stereo unspecified) in the list: 4 | u | u | -20%

(more compounds)
GLA inh pH 4.5 | structure | Rango-impB inh | Rango release inh | miR-21 FLuc
x | Cc1nc(CNC(=O)C2CCC(=O)N(CCc3ccc(Cl)cc3)C2)sc1C (stereo unspecified) | -2.0% | 8% | -1%
13 | O=C(COc1ccc(/C=N/NC(=O)c2cc3ccccc3o2)cc1Cl)Nc1ccccc1 | -2.4% | -6% | -39%
-1 | CC1(C)CC(=O)C(C(C2=C(O)CC(C)(C)CC2=O)c2ccc(O)c([N+](=O)[O-])c2)=C(O)C1 | -3.1% | -11% | 0%
0 | O=c1[nH]nc(N/N=C/c2ccc(Cl)cc2Cl)c(=O)[nH]1 | 4.7% | -10% | 10%
x | COc1cc2c(cc1OC)C(c1ccccc1[N+](=O)[O-])N(C(C)=O)CC2 (stereo unspecified) | u | 1% | -8%
x | COc1ccc(C(=O)COC(=O)C(CCSC)NC(=O)COc2ccccc2)c(OC)c1 (stereo unspecified) | 2.3% | 17% | 3%
-3 | CC(C)C(c1nnnn1C1CCCC1)N1CCCCC1 (stereo unspecified) | 5.3% | -4% | 0%
-11 | COc1ccc(-c2nnc(SCc3cccnc3)o2)cc1 | 4.0% | 0% | -40%

Compound activity from PubChem BioAssay.
